Source: PubChem (Broad Institute)
A1 apoptosis 2 = A1 inhibition read as caspase activation; MEF A1-2A-BIM cells, caspase-Glo luminescence, 3 h; percent of clofoctol response, DMSO zero; caspase activation, % (concentration not given with the values); 24,000 tested, under 10 active; AID 2465; in the data active = caspase activation above about 5.9%;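 note: wells of about 30 µL received 50 nL stock; the first replicate is given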
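Material: A1-2A-BIM-expressing MEF cells. Buffer or medium: RPMI-1640 plus 10% FBS. Incubation: cells settled overnight, compound exposure 3 h at 37 °C, 5% CO2. Signal: Caspase-Glo 3/7 luminescence, 1 h at room temperature.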
* marks the source's active call; other numbers are inactive results.

SMILES	A1 apoptosis 2
C[C@@H]1CN([C@H](C)CO)C(=O)c2cc(NC(=O)CCC(F)(F)F)ccc2O[C@@H]1CN(C)Cc1ccncc1	-0.9
CCCN(C)C[C@@H]1OCCCC[C@@H](C)Oc2ccc(NC(=O)Nc3ccc(C(F)(F)F)cc3)cc2C(=O)N([C@H](C)CO)C[C@H]1C	1.6
C[C@H](CO)N1C[C@H](C)[C@@H](CN(C)S(=O)(=O)c2cn(C)cn2)Oc2ccc(NC(=O)Cc3cn(C)c4ccccc34)cc2CC1=O	-0.1
COc1ccc(S(=O)(=O)N(C)C[C@@H]2Oc3c(NC(=O)Nc4c(C)noc4C)cccc3C(=O)N([C@H](C)CO)C[C@@H]2C)cc1	-0.8
C[C@@H]1CN([C@@H](C)CO)C(=O)CCCn2cc(nn2)CO[C@@H]1CN(C)Cc1ccccc1C(=O)O	0.3
Cc1noc(C)c1NC(=O)N(C)C[C@@H]1Oc2c(cccc2N(C)C)C(=O)N([C@H](C)CO)C[C@@H]1C	0.9
C=CCOC(=O)[C@H]1[C@@H]2C(=O)O[C@@H](c3ccccc3)[C@@H](c3ccccc3)N2[C@@H](c2ccc(OCCOC(=O)[C@H]3C[C@H]4C(=O)N5CCC[C@H]5C(=O)N4[C@H]3c3ccc(O)cc3)cc2)[C@]12C(=O)Nc1ccccc12	0.1
C[C@H]1CN([C@@H](C)CO)C(=O)Cc2cc(NC(=O)Nc3ccccc3)ccc2O[C@@H]1CN(C)S(=O)(=O)c1ccccc1	-0.3
C[C@@H]1CCCCO[C@H](CN(C)Cc2ccc(C(=O)O)cc2)[C@H](C)CN([C@H](C)CO)C(=O)c2cc(NC(=O)NC3CCCCC3)ccc2O1	-0.1
C[C@H]1CCCCO[C@H](CN(C)S(=O)(=O)c2ccc(F)cc2)[C@@H](C)CN([C@@H](C)CO)C(=O)c2cc(NS(=O)(=O)c3ccccc3)ccc2O1	1.4
C[C@@H]1CN([C@H](C)CO)C(=O)c2cccc(NC(=O)C3CCOCC3)c2O[C@H]1CN(C)S(=O)(=O)c1ccc(F)cc1	-0.9
COc1ccc(NC(=O)N(C)C[C@@H]2OCCCC[C@H](C)Oc3ccc(NC(=O)Cc4ccccc4)cc3C(=O)N([C@H](C)CO)C[C@@H]2C)cc1	0.7
C[C@@H]1CN([C@@H](C)CO)C(=O)c2cccc(NC(=O)C3CCCCC3)c2O[C@H]1CN(C)S(=O)(=O)c1ccc(F)cc1	-0.7
Cc1noc(C)c1S(=O)(=O)N(C)C[C@@H]1Oc2ccc(NC(=O)NC(C)C)cc2CC(=O)N([C@H](C)CO)C[C@@H]1C	-0.8
C[C@H](CO)N1C[C@H](C)[C@@H](CN(C)S(=O)(=O)c2ccccc2)Oc2ccc(NC(=O)NC3CCCCC3)cc2CC1=O	1.5
Cc1noc(C)c1NC(=O)N(C)C[C@H]1Oc2c(NC(=O)c3ccc(-c4nccs4)cc3)cccc2C(=O)N([C@H](C)CO)C[C@@H]1C	0.8
CNC[C@@H]1Oc2ccc(NC(=O)CCCN(C)C)cc2C(=O)N([C@H](C)CO)C[C@@H]1C	-0.5
C[C@H](CO)N1C[C@H](C)[C@H](CN(C)Cc2ccccc2)Oc2ccc(N(C)C)cc2C1=O	-0.5
COc1cc(Cl)c(/C=N/NC(=O)c2cccc(C(=O)NO)c2)c(Cl)c1OC	-1.0
Cc1ccc(S(=O)(=O)N(C)C[C@H]2Oc3ccc(NC(=O)CCCCCC(=O)Nc4ccccc4N)cc3CC(=O)N([C@@H](C)CO)C[C@@H]2C)cc1	0.8
C[C@H]1CCCCO[C@@H](CN(C)Cc2ccc(C(=O)O)cc2)[C@@H](C)CN([C@@H](C)CO)C(=O)c2cc(NC(=O)Nc3ccc(F)cc3)ccc2O1	-0.2
C[C@H](CO)N1C[C@H](C)[C@@H](CN(C)Cc2ccc(C(F)(F)F)cc2)Oc2ccc(NC(=O)Nc3ccccc3)cc2CC1=O	1.5
C[C@@H]1CCCCO[C@@H](CN(C)C(=O)Cc2ccccc2)[C@@H](C)CN([C@@H](C)CO)C(=O)c2cc(NC(=O)Nc3ccc(C(F)(F)F)cc3)ccc2O1	1.7
C[C@@H]1CN([C@H](C)CO)C(=O)c2cccc(NS(C)(=O)=O)c2O[C@@H]1CN(C)Cc1ccc(-c2ccccc2)cc1	0.4
COc1ccc(S(=O)(=O)N(C)C[C@H]2Oc3ccc(NC(=O)Nc4ccc(C(F)(F)F)cc4)cc3CC(=O)N([C@H](C)CO)C[C@H]2C)cc1	-0.3
C[C@H]1CN([C@@H](C)CO)C(=O)c2cc(NS(=O)(=O)c3ccc(Cl)cc3)ccc2O[C@H]1CN(C)Cc1ccc(C(F)(F)F)cc1	-0.5
Cc1noc(C)c1NC(=O)Nc1cccc2c1O[C@H](CN(C)Cc1ccccc1)[C@@H](C)CN([C@H](C)CO)C2=O	0.1
Cc1noc(C)c1NC(=O)Nc1ccc2c(c1)CC(=O)N([C@H](C)CO)C[C@@H](C)[C@@H](CN(C)Cc1ccc(-c3ccccc3)cc1)O2	0.3
Cc1ccc(S(=O)(=O)Nc2cccc3c2O[C@@H](CN(C)Cc2ccc(-c4ccccc4)cc2)[C@@H](C)CN([C@H](C)CO)C3=O)cc1	0.8
C[C@@H]1CN([C@H](C)CO)C(=O)Cc2cc(NC(=O)CCN3CCOCC3)ccc2O[C@@H]1CN(C)C	1.2
C[C@@H]1CN([C@H](C)CO)C(=O)c2cccc(NS(=O)(=O)c3cccs3)c2O[C@@H]1CN(C)CC1CCCCC1	0.6
COc1ccc([C@H]2C=C(C(=O)NCc3ccccc3)O[C@@H](OCc3ccc(CO)cc3)C2)cc1	0.7
Cc1ccc(S(=O)(=O)Nc2ccc3c(c2)CC(=O)N([C@H](C)CO)C[C@@H](C)[C@H](CN(C)Cc2ccncc2)O3)cc1	1.4
Cc1ccc(S(=O)(=O)N(C)C[C@@H]2OCCCC[C@H](C)Oc3ccc(NS(=O)(=O)c4ccc(Cl)cc4)cc3C(=O)N([C@@H](C)CO)C[C@@H]2C)cc1	-0.5
O=C(N/N=C/c1ccc(-c2ccccc2)c(F)c1)c1ccccn1	-11
C[C@@H]1CN([C@H](C)CO)C(=O)c2cc(NC(=O)NC3CCCCC3)ccc2O[C@@H]1CN(C)C(=O)Nc1ccccc1	0.2
Cc1ccccc1CN(C)C[C@@H]1OCc2cnnn2CCCC(=O)N([C@H](C)CO)C[C@H]1C	-0.3
C[C@@H]1CN([C@@H](C)CO)C(=O)c2cc(NC(=O)Cc3ccccc3)ccc2O[C@@H](C)CCCCO[C@@H]1CN(C)Cc1ccccc1	-0.1
C[C@H]1CCCCO[C@@H](CN(C)S(=O)(=O)c2cccs2)[C@@H](C)CN([C@@H](C)CO)C(=O)c2cc(NC(=O)C3CCCCC3)ccc2O1	0.2
COc1ccc(CN(C)C[C@@H]2OCCCC[C@H](C)Oc3ccc(NS(=O)(=O)c4ccc(F)cc4)cc3C(=O)N([C@@H](C)CO)C[C@@H]2C)cc1	0.5

Rewritten as a markdown table: five of the compounds above.
| Molecule | A1 apoptosis 2 |
| --- | --- |
| Cc1ccc(S(=O)(=O)N(C)C[C@@H]2OCCCC[C@H](C)Oc3ccc(NS(=O)(=O)c4ccc(Cl)cc4)cc3C(=O)N([C@@H](C)CO)C[C@@H]2C)cc1 | -0.5 |
| O=C(N/N=C/c1ccc(-c2ccccc2)c(F)c1)c1ccccn1 | -11 |
| C[C@@H]1CN([C@H](C)CO)C(=O)c2cc(NC(=O)NC3CCCCC3)ccc2O[C@@H]1CN(C)C(=O)Nc1ccccc1 | 0.2 |
| Cc1ccccc1CN(C)C[C@@H]1OCc2cnnn2CCCC(=O)N([C@H](C)CO)C[C@H]1C | -0.3 |
| C[C@@H]1CN([C@@H](C)CO)C(=O)c2cc(NC(=O)Cc3ccccc3)ccc2O[C@@H](C)CCCCO[C@@H]1CN(C)Cc1ccccc1 | -0.1 |

Looked up by compound from above:
SMILES	A1 apoptosis 2
C[C@@H]1CN([C@H](C)CO)C(=O)c2cccc(NS(=O)(=O)c3cccs3)c2O[C@@H]1CN(C)CC1CCCCC1	0.6
COc1ccc(CN(C)C[C@@H]2OCCCC[C@H](C)Oc3ccc(NS(=O)(=O)c4ccc(F)cc4)cc3C(=O)N([C@@H](C)CO)C[C@@H]2C)cc1	0.5
O=C(N/N=C/c1ccc(-c2ccccc2)c(F)c1)c1ccccn1	-11

Continuation.
SMILES	A1 apoptosis 2
C[C@@H]1CN([C@H](C)CO)C(=O)c2cc(NS(=O)(=O)c3ccc(F)cc3)ccc2O[C@@H](C)CCCCO[C@@H]1CN(C)S(=O)(=O)c1ccc(Cl)cc1	-0.3
Cc1ccc(S(=O)(=O)N(C)C[C@@H]2OCCCC[C@@H](C)Oc3ccc(NS(=O)(=O)c4cn(C)cn4)cc3C(=O)N([C@H](C)CO)C[C@@H]2C)cc1	-0.6
C[C@@H]1CCCCO[C@@H](CN(C)C(=O)Cc2ccccc2)[C@H](C)CN([C@@H](C)CO)C(=O)c2cc(N(C)C)ccc2O1	0.3
C[C@H](CO)N1C[C@H](C)[C@H](CN(C)S(=O)(=O)c2ccccc2)OCCCC[C@H](C)Oc2ccc(NC(=O)c3ccccc3)cc2C1=O	0.1
COc1ccc(S(=O)(=O)Nc2ccc3c(c2)C(=O)N([C@H](C)CO)C[C@H](C)[C@H](CN(C)Cc2ccc(-c4ccccc4)cc2)O3)cc1	-0.7
C[C@@H]1CCCCO[C@H](CN(C)C(=O)Nc2ccc3c(c2)OCO3)[C@@H](C)CN([C@@H](C)CO)C(=O)c2cc(NC(=O)CCCN(C)C)ccc2O1	-0.7
O=C(N/N=C/c1ccc(O)cc1Br)c1ccccn1	-12
COc1ccc(NC(=O)Nc2ccc3c(c2)C(=O)N([C@@H](C)CO)C[C@@H](C)[C@@H](CN(C)S(=O)(=O)c2ccc(F)cc2)O3)cc1	-0.7
C[C@@H]1CCCCO[C@H](CN(C)C(=O)Nc2ccc(C(F)(F)F)cc2)[C@@H](C)CN([C@H](C)CO)C(=O)c2cc(N(C)C)ccc2O1	-1.7
C[C@@H]1CCCCO[C@@H](CN(C)C(=O)Cc2ccccc2)[C@@H](C)CN([C@H](C)CO)C(=O)c2cc(N(C)C)ccc2O1	0.3
C[C@@H]1CN([C@@H](C)CO)C(=O)Cc2cc(NC(=O)C3CC3)ccc2O[C@@H]1CN(C)S(C)(=O)=O	0.7
C[C@H]1CN([C@@H](C)CO)C(=O)c2cc(NS(=O)(=O)c3ccc(F)cc3)ccc2O[C@H]1CN(C)Cc1ccc(C(=O)Nc2ccccc2N)cc1	-0.5
CC(C)NC(=O)N(C)C[C@H]1Oc2c(NC(=O)Nc3ccc(F)cc3)cccc2C(=O)N([C@H](C)CO)C[C@H]1C	-1.6
C[C@@H]1CN([C@H](C)CO)C(=O)c2cccc(NS(=O)(=O)c3ccc(Cl)cc3)c2O[C@H]1CN(C)C	-0.6
C[C@@H]1CN([C@@H](C)CO)C(=O)c2cc(NS(=O)(=O)c3ccc(Cl)cc3)ccc2O[C@H]1CN(C)Cc1ccc(C(=O)O)cc1	-0.2
Cc1noc(C)c1NC(=O)N(C)C[C@@H]1OCCCC[C@@H](C)Oc2ccc(NC(=O)c3ccncc3)cc2C(=O)N([C@@H](C)CO)C[C@H]1C	0.1
C[C@H]1CN([C@@H](C)CO)C(=O)c2cccc(NC(=O)NC3CCCCC3)c2O[C@@H]1CN(C)C(=O)NC1CCCCC1	-1.1
C[C@@H]1CN([C@@H](C)CO)C(=O)c2cccc(NC(=O)C3CCCCC3)c2O[C@H]1CN(C)CC1CC1	-0.2
C[C@@H]1CN([C@H](C)CO)C(=O)Cc2cc(NS(C)(=O)=O)ccc2O[C@H]1CN(C)S(=O)(=O)c1cccs1	0.7
C[C@H](CO)N1C[C@H](C)[C@@H](CN(C)C(=O)Nc2cccc3ccccc23)OCCCC[C@H](C)Oc2ccc(NC(=O)Nc3ccccc3)cc2C1=O	0.3
CC(C)NC(=O)N(C)C[C@@H]1Oc2c(NS(=O)(=O)c3ccccc3)cccc2C(=O)N([C@H](C)CO)C[C@@H]1C	-1.8
Cc1noc(C)c1S(=O)(=O)Nc1ccc2c(c1)CC(=O)N([C@H](C)CO)C[C@@H](C)[C@H](CN(C)Cc1ccc(Cl)c(Cl)c1)O2	-0.1
COc1ccc(NC(=O)N(C)C[C@H]2Oc3ccc(NS(=O)(=O)c4cn(C)cn4)cc3C(=O)N([C@H](C)CO)C[C@H]2C)cc1	0.6
C[C@H](CO)N1C[C@H](C)[C@@H](CN(C)C(=O)Cc2ccccc2)OCCCC[C@H](C)Oc2ccc(NS(=O)(=O)c3ccc(Cl)cc3)cc2C1=O	0.3
C[C@H](CO)N1C[C@H](C)[C@H](CN(C)CC2CC2)Oc2c(NC(=O)c3ccncc3)cccc2C1=O	0.4
C[C@H](CO)N1C[C@H](C)[C@@H](CN(C)S(=O)(=O)c2ccccc2)OCCCC[C@H](C)Oc2ccc(NS(C)(=O)=O)cc2C1=O	0.3
CC(C)NC(=O)Nc1ccc2c(c1)C(=O)N([C@@H](C)CO)C[C@@H](C)[C@H](CN(C)C(=O)Nc1ccc(F)cc1)OCCCC[C@H](C)O2	-0.6
C[C@@H]1CCCCO[C@H](CN(C)C(=O)Nc2ccccc2)[C@H](C)CN([C@@H](C)CO)C(=O)c2cc(NC(=O)Nc3ccc(C(F)(F)F)cc3)ccc2O1	-0.8
C[C@@H]1CCCCO[C@@H](CN(C)Cc2ccc(Cl)c(Cl)c2)[C@@H](C)CN([C@@H](C)CO)C(=O)c2cc(NS(=O)(=O)c3ccc(Cl)cc3)ccc2O1	0.1
C[C@H](CO)N1C[C@H](C)[C@H](CN(C)S(C)(=O)=O)Oc2c(NC(=O)c3cnccn3)cccc2C1=O	2.5

These rows are one share of the data; rates above refer to the full screens.
